# KCNQ2 pot – enhances the rat KCNQ2 potassium channel; CHO-K1 KCNQ2, FluxOR thallium flux fluorescence; stronger effect = higher value; B-score at 10 µM; hit rate 0.54% among 310,000; AID 2239;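 active = fluorescence ratio B-score at least 3 SD of library B-scores, with initial fluorescence B-score within 3 SD, cut at about 5.3 in these data; same plate scores as AID 2156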;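 also: B-score of peak minus minimum over baseline fluorescence ratio after K+ and Tl+ stimulus; positive B-score means potentiation of KCNQ2 with more thallium influx and brighter signal; only the inactives scoring about 0 or higher are listed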
# Target sequence (O88943 whole entry, looked up): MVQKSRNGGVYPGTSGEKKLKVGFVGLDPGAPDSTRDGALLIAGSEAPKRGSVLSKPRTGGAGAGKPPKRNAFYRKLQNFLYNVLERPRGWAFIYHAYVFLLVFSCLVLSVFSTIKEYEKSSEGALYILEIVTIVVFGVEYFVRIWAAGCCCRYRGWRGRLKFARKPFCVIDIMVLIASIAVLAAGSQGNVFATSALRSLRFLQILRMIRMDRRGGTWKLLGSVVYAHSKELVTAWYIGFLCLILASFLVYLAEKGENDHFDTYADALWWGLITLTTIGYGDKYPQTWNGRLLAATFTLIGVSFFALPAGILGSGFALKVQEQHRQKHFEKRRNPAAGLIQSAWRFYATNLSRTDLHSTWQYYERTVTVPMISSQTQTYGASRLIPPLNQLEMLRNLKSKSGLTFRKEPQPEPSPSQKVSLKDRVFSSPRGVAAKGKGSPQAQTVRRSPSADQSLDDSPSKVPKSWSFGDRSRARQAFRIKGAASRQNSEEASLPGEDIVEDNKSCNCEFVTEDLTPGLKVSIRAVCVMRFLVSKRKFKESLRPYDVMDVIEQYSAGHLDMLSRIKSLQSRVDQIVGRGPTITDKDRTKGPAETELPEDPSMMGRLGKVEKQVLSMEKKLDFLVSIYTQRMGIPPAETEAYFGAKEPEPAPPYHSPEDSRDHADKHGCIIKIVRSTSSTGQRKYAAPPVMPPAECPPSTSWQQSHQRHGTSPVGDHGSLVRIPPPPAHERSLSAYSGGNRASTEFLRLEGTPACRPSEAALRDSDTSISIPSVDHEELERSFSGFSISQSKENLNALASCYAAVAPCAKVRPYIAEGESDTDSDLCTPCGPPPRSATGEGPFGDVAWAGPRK
# KCNQ2 pot baseline – also measured in KCNQ2 pot; calls as there; B-score; compound at 10 µM; measured here: initial fluorescence intensity artifact check;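 brightness before thallium and not channel activity; 0 = typical well and far values either way flag optical interference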
# Numbers without * were called inactive. These rows are one share of the data (hit frequency here may not be typical).
# Results follow in this order: KCNQ2 pot | KCNQ2 pot baseline
O=C1c2ccccc2S(=O)(=O)N1CCOc1ccc(F)cc1
→ 0.91 | 1.07
Cc1ccc(C)c(OCC(=O)OCC(=O)Nc2c(C)nn(-c3ccccc3)c2C)c1
→ 2.23 | -0.02
CC(=O)N/C(=C/c1ccc2c(c1)OCO2)C(=O)NC(Cc1ccccc1)C(=O)O (centres undefined)
→ 1.03 | 0.71
Cc1nn(-c2ccccc2)c(Cl)c1C(=O)OCC(=O)N(C)c1c(N)n(Cc2ccccc2)c(=O)[nH]c1=O
→ 0.06 | 2.56
O=C(Nc1cc(=O)[nH]c2ncnn12)c1ccccc1F
→ 1.04 | 0.36
O=C(NCCc1c[nH]c2ccccc12)c1ccc2nc[nH]c2c1
→ 0.7 | -1
O=C(COC(=O)c1ncc(Cl)c(Cl)c1Cl)c1ccc(Cl)s1
→ 1.61 | 0.55
CCN1C(=O)C2(/C(=C(\O)c3ccc4c(c3)OCCO4)C(=O)C(=O)N2CCCOC)c2ccccc21 (centres undefined)
→ 0.1 | 0.05
CN(C(=O)C1CCCO1)c1nnc(-c2ccccn2)s1 (centres undefined)
→ 1.55 | -0.81
Cc1ccc(CN2C(=O)S/C(=C\c3ccccc3OCC(=O)O)C2=O)cc1
→ 1.86 | -0.94
CCC(NC(=O)c1cc(COc2ccc(Cl)cc2OC)on1)c1ccncc1 (centres undefined)
→ 0.47 | 0.78
CCCCSc1cc(C)nc(N)n1
→ 2.41 | -0.5
COc1ccc(NC(=O)NNc2cc(N3CCOCC3)nc(N3CCOCC3)n2)cc1
→ 0.33 | -1.06
COc1ccc(CN2CC(C(=O)NCCCN3CCN(C)CC3)CC2=O)cc1 (centres undefined)
→ 0.47 | 0.54
CCCn1c(=N)n(CC(=O)c2cccs2)c2ccccc21
→ 0.47 | -2.08
CCOC(=O)c1cc2c(=O)n3ccccc3nc2n(CCCOC)c1=NC(=O)C(C)(C)C
→ 1.1 | -1.24
CCOc1ccc(/C=N/n2nnnc2N)cc1O
→ 1.43 | 0.99
O=C(Nc1ccc(C2CCCCC2)cc1)C1CCCN(c2ncccn2)C1 (centres undefined)
→ 0.07 | -0.85
O=C(Nc1ccc2oc(-c3ccccc3Cl)nc2c1)c1ncn[nH]1
→ 1.56 | -0.76
CC(=O)Nc1ccc(NC(=O)CSc2nc3ccccc3o2)cc1
→ 0.15 | 0.04
O=C(c1ccccc1)c1cccn1CC(=O)N1CCN(c2ccc(F)cc2)CC1
→ 0.07 | 0.02
CCOC(=O)CSc1nc(C)c(C(C)=O)cc1C(N)=O
→ 0.05 | -1.59
Cc1cc(NC(=O)Cn2nnc3sc4c(c3c2=O)CCCC4)no1
→ 0.81 | 1.96
Cc1nc(-c2ccc(S(=O)(=O)NCC3CCN(C(=O)OC(C)(C)C)CC3)s2)cs1
→ 0.15 | -0.37
Cc1cc(C)c(-c2csc(NC(=O)/C=C/c3cccs3)n2)c(C)c1
→ 0.2 | -0.04
COC(=O)c1cc(C)sc1NC(=O)CCCC(=O)O
→ 0.1 | 0.56
CCOc1ccc(CNCCc2ccc(S(N)(=O)=O)cc2)cc1
→ 1.19 | -0.62
CCC(OC(=O)CCc1nc2ccccc2[nH]c1=O)C(=O)c1ccccc1 (centres undefined)
→ 1.05 | 0.38
C/C=C\C=C/C(=O)Nc1cccc(C2=NOC3(C2)C[C@H](C(N)=O)N(C(=O)CC)C3)c1 (some centres undefined)
→ 0.17 | 0
CCC(C)c1ccc(S(=O)(=O)N2CCN(S(=O)(=O)c3ccc(NC(C)=O)cc3)CC2)cc1 (centres undefined)
→ 1.21 | 0.14
CC(C)(C)n1nnnc1C(c1cccnc1)N1CCN(c2ccccn2)CC1 (centres undefined)
→ 1.45 | 1.01
O=C(Cc1ccccc1[N+](=O)[O-])N1CCN(c2ccc(F)cc2)CC1
→ 1.04 | -0.77
COc1ccc(NC(=O)c2cnc(C)cn2)cc1-n1cnnn1
→ 0.4 | 1.42
CC(C(=O)Nc1c2c(cc3c1CCC3)CCC2)N1CCCC1 (centres undefined)
→ 0.33 | 0.02
O=C(CCCC(=O)N(c1ccc2c(c1)OCCO2)C(C(=O)NC1CCCCC1)c1ccc(Cl)cc1)Nc1ccccn1 (centres undefined)
→ 0.17 | -1.1
O=C(Nc1nnc(SCc2ccc(F)cc2)s1)c1ccco1
→ 0.82 | -0.79
CSc1nc(N)n2nc(C(C)(C)C)cc2n1
→ 0.72 | 0.08
COc1ccc(N2C(=O)C(C)(C)C2c2c(O)ccc3ccccc23)cc1 (centres undefined)
→ 0.37 | -2
COc1ccc(/C(N)=N/OC(=O)c2cccc([N+](=O)[O-])c2C)cc1OC
→ 0.01 | 1.11
COc1ccc([N+](=O)[O-])cc1NC(=O)C(C)OC(=O)c1cccnc1 (centres undefined)
→ 1.22 | -0.9
CCOC(=O)c1c(C)n(C)c2ccc(OC(=O)c3ccc([N+](=O)[O-])cc3)cc12
→ 1.38 | -0.03
CC(C)=CCC/C(C)=C/C=N/NC(=O)c1ccccc1[N+](=O)[O-]
→ 1.36 | -0.45
COc1cccc(CCNS(=O)(=O)CCNC(=O)c2cccc(OC)c2)c1
→ 0.53 | -1.41
Cc1occc1C(=O)NCCc1cccc(Cl)c1
→ 4.38 | 0.78
Cn1c(=O)[nH]c(=O)c2c1nc(N1CCN(Cc3ccccc3)CC1)n2CCSc1ncccn1
→ 0.13 | 0
CCCn1c(SCC(=O)NC(C)c2ccccc2)n[nH]c1=O (centres undefined)
→ 1.75 | 0.3
Cc1ccc(NC(=O)C2CCCC2)c(Br)c1
→ 4.55 | -0.82
Cc1nn(-c2cc(C(F)(F)F)ccc2Cl)c2nc(C(Cl)(Cl)Cl)[nH]c(=O)c12
→ 3.85 | -1.04
Cc1ccccc1NC(=O)CSc1nnc(-c2ccco2)n1N
→ 0.41 | -2.01
CCCCn1c(-c2cccs2)nc2oc3ccccc3c(=O)c2c1=O
→ 0.86 | -0.63
O=C(COc1ccc(Cl)cc1)Nc1nc(-c2cccs2)cs1
→ 0.14 | -1.05
CCC(=O)NC(=S)Nc1ccc(NC(=O)c2ccc([N+](=O)[O-])cc2Cl)cc1
→ 0.03 | 0.02
COc1ccc(C2C(=O)c3ccccc3C2=O)cc1OC
→ 0.26 | -2.73
CCOC(=O)CC1OC(=O)c2cc3c(cc21)C(=O)OC3CC(=O)OCC (centres undefined)
→ 0.43 | 2.06
Cc1nc(NC(=O)CCCC(=O)Nc2nc(C)c(C)s2)sc1C
→ 1.56 | 0.16
COc1ccc(NS(=O)(=O)c2ccc(NC(=O)c3ccc(Br)cc3)cc2)nn1
→ 0.12 | -0.76
O=C(Nc1ccc(N2CCN(C(=O)c3ccccc3)CC2)c(Cl)c1)c1ncn[nH]1
→ 0.7 | 1.4
N#C/C(=N\Nc1cccc(F)c1)C(=N)N1CCCCCC1
→ 1.51 | -0.09
Cc1cccc(-n2nnc(C(=O)NCc3ccccn3)c2N)c1
→ 0.04 | 1.78
O=C(NCC1CCCO1)c1nc2c(nnn2Cc2ccccc2Cl)c(=O)[nH]1 (centres undefined)
→ 1.38 | -0.93

# Remaining list, next part:
# Results follow in this order: KCNQ2 pot | KCNQ2 pot baseline
Cc1ccc2nc(SCC(=O)Nc3nnc(SCC(N)=O)s3)[nH]c2c1
→ 2.05 | 1.21
CCCCC1=CC2=C(c3ccco3)C(=O)C(C)(OC(=O)c3ccc(OC)cc3)C(=O)C2=CN1CC(C)C (centres undefined)
→ 0.49 | 0.42
COc1ccc(N2C(=O)CCC(C(=O)N3CCN(c4ccccn4)CC3)C2c2ccc(F)cc2)cc1 (centres undefined)
→ 0.09 | -0.05
CCOC(=O)c1cc(C(=O)NN)c(=O)[nH]c1C
→ 1.43 | -0.36
COc1ccccc1NC(=O)c1nnn(CC(=O)Nc2cccc(SC)c2)c1N
→ 0.33 | -0.1
Cc1cc(S(=O)(=O)N2CCN(c3ncccn3)CC2)ccc1-n1cnnn1
→ 0.54 | 1.54
CCCCN(CC)CCCNC(=O)c1cc2c(=O)[nH]c3ccccc3c2s1
→ 1.41 | 0.51
O=C(Nc1ccc(S(=O)(=O)Nc2ncccn2)cc1)c1ccc(S(=O)(=O)N2CCCC2)cc1
→ 0.92 | -1.47
COc1cc(/C=N/NC(=O)c2nnn(-c3nonc3N)c2C(C)C)ccc1O
→ 2.22 | 0.67
COc1ccc(-n2cccc2/C=C2\C(=N)N3N=C(c4ccco4)SC3=NC2=O)cc1
→ 1.53 | -0.95
CCOC(=O)c1c(/N=C/c2cccc([N+](=O)[O-])c2O)sc2c1CCC2
→ 1.4 | 1.44
COc1cc(C2Nc3cccc4cccc(c34)N2)ccc1O
→ 0.7 | -2.78
N#CCCN(C(=O)c1cc2c(s1)-c1ccccc1S(=O)(=O)C2)c1ccccc1
→ 1.26 | -0.54
COc1ccccc1NC(=O)c1cc(Cl)nnc1Cl
→ 0.07 | -1.31
Cc1cc(C)nc(SCc2cc(=O)c(OC(=O)c3ccc(S(=O)(=O)N4CCCC4)cc3)co2)n1
→ 2.26 | -1.14
Cc1n[nH]c(=O)c2c(NC(=O)CSc3ccccc3F)oc(C)c12
→ 3.68 | -2.08
COc1cccc(NC(=O)Nc2cccs2)c1
→ 2.37 | -1.23
CCOc1ccc(CC(=O)N2N=C(C)CC2(O)C(F)(F)F)cc1 (centres undefined)
→ 0.41 | 1.12
O=C(c1ccc(N2CCCCC2)c([N+](=O)[O-])c1)N(c1ccccn1)c1ccccn1
→ 0.45 | 1.61
CCOc1ccccc1NC(=O)c1cc2ccccc2oc1=O
→ 0.02 | 0.61
COc1ccccc1CNc1ccc([N+](=O)[O-])cc1C
→ 0.01 | 0.31
CC1=C(C(N)=O)C(c2ccccc2)n2nc(-c3ccncc3)nc2N1 (centres undefined)
→ 0.03 | -0.01
O=C(CNC(=O)c1ccccc1)NC1(C(=O)NC2CCCC2)CCCCC1
→ 0.53 | 1.81
COc1ccc2c(c1)-c1nc(/N=C/c3ccccc3O)sc1CC2
→ 0.87 | 1
COc1ccc(-c2[nH]ncc2CN2CCN(C3CCCCC3)C(=O)C2)cc1F
→ 0.07 | 1.32
COc1cc2c(cc1OC)C(COc1ccc(F)cc1)N(C(C)=O)CC2 (centres undefined)
→ 0.92 | -0.5
CCNC(=O)N1CCCC(C(=O)c2ccc(C(F)(F)F)cc2)C1 (centres undefined)
→ 0.37 | 0.04
C/C=C(\C)CN1CCC(Oc2ccc(C(=O)NCc3ccccn3)cc2)CC1
→ 0.32 | 1.83
O=C(Nc1nc(-c2ccc3c(c2)OCO3)cs1)c1ccncc1
→ 1.31 | 0.62
CN(Cc1ccon1)C(=O)CCc1nnc(CCCCc2ccccc2)o1
→ 1.03 | -1.8

# Whole records, looked up by structure. Order of screens: KCNQ2 pot, KCNQ2 pot baseline
# `COc1cccc(NC(=O)Nc2cccs2)c1` across the screens: 2.37, -1.23
# `COc1ccc(-c2[nH]ncc2CN2CCN(C3CCCCC3)C(=O)C2)cc1F` across the screens: 0.07, 1.32

# The list goes on.
# Results follow in this order: KCNQ2 pot | KCNQ2 pot baseline
S=C(Nc1cccnc1)Nc1ccccc1Br
→ 0.85 | -0.8
CCCC(=O)Nc1sc(C)c(-c2ccc(OC)cc2)c1C#N
→ 0.6 | -1.32
COc1ccc(OC)c(Cc2nnc(CCC(=O)NC3C4CC5CC(C4)CC3C5)o2)c1 (centres undefined)
→ 1.07 | -0.03
Cc1ccnc(N/C=C(/NC(=O)c2ccccc2)C(=O)N/N=C\c2ccc(F)cc2)n1
→ 0.01 | -0.82
Cc1noc(C)c1COc1ccccc1C(=O)N1CCN(S(=O)(=O)c2ccccc2F)CC1
→ 0.33 | -0.63
S=C(NCc1ccco1)Nc1ccccc1Cl
→ 2.52 | -0.3
CCOC(=O)Cn1nc(/C=C/c2ccc(C(C)C)cc2)ccc1=O
→ 1.18 | 0.53
O=C(NCc1ccncc1)c1ccc2nc(Cc3ccccc3F)oc2c1
→ 0.23 | -0.63
O=C(Cn1nnc(-c2ccncc2)n1)N(C1CCCCC1)C1CCCCC1
→ 0.39 | -0.11
O=C1C(Cl)=C(N2CCOCC2)C(=O)N1c1ccccc1Cl
→ 0.5 | -1.66
CCN(CC)c1ccc(/C=N/N2C(=O)c3ccccc3C2=O)c(O)c1
→ 0.91 | -1.65
CC(=O)O[C@H]1C[C@@]2(C)[C@@H](C[C@@H](O)[C@H]3[C@@]4(C)CC[C@@H](O)[C@@H](C)[C@@H]4CC[C@@]32C)/C1=C(\CCC=C(C)C)C(=O)O
→ 1.64 | -1.8
COc1ccc(CCNC(=O)CSc2nc(=O)n3cc(C)ccc3n2)cc1OC
→ 0.09 | -4.44
CCc1ccc(N=C2NC(=O)CS2)cc1
→ 0.02 | 0
CCOC(=O)c1ccc(NC(=O)CNS(=O)(=O)c2ccccc2)cc1
→ 0.14 | 1.39

# Ordered by value in KCNQ2 pot baseline (high to low): three from the list above
# Results follow in this order: KCNQ2 pot | KCNQ2 pot baseline
CC(=O)Nc1ccc(NC(=O)CSc2nc3ccccc3o2)cc1
→ 0.15 | 0.04
CC(C(=O)Nc1c2c(cc3c1CCC3)CCC2)N1CCCC1 (centres undefined)
→ 0.33 | 0.02
CCCCSc1cc(C)nc(N)n1
→ 2.41 | -0.5

# Further entries:
# Results follow in this order: KCNQ2 pot | KCNQ2 pot baseline
Cc1ccc(NC(=O)CCOc2ccccc2)cc1
→ 1.68 | 0.73
CC1CN(C(=O)COC(=O)c2cc(S(N)(=O)=O)c(Cl)cc2Cl)CC(C)O1 (centres undefined)
→ 0.45 | -1.81
COc1cc(C(=O)Oc2ccc(/C=N/NC(=O)c3ccncc3)cc2)cc(OC)c1OC
→ 0.02 | 0.76
CCc1ccn2cc(-c3ccc4c(c3)OCO4)nc2c1
→ 2.21 | -0.04
Cc1ccc(C)c(N2CCN(CCCNC(=O)Cn3c(=O)c4cccn4c4cccnc43)CC2)c1
→ 0.11 | -0.32
Cc1cc(Br)cc2c1N(C)C(=O)C2(c1ccc(O)cc1)c1ccc(O)cc1
→ 0.09 | -0.6
Cc1ccccc1NC(=O)CC(=O)Nc1ccccc1C
→ 0.02 | 1.25
COc1ccc(N2CCN(C(=O)c3ccc4c(c3)NC(=O)C(CSCc3ccc(C)cc3)N4)CC2)cc1 (centres undefined)
→ 0.53 | 0.01

# High-throughput results: PubChem BioAssay, Johns Hopkins Ion Channel Center
